# Screens (PubChem)
# Rango complex inh: Rango-importin beta binding inhibition; Rango CFP/YFP FRET sensor + importin beta, 45 min; Potency, µM (highest dose often 92.2 µM), without a hit: at the highest dose inhibition of complex formation; 340,000 compounds, 0.031% hits; active = rising FRET ratio curve, often small or poorly fitted; inconclusive = mostly compound fluorescence or quenching in the first reads; inactive = flat curves in all reads;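 also: potency is read from the fitted curve at half-maximal effect; 0% = DMSO wells and 100% = buffer wells lacking importin beta; nearly all actives have a fitted effect of over 15% in size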
# Target sequence (Q14974 whole entry, looked up): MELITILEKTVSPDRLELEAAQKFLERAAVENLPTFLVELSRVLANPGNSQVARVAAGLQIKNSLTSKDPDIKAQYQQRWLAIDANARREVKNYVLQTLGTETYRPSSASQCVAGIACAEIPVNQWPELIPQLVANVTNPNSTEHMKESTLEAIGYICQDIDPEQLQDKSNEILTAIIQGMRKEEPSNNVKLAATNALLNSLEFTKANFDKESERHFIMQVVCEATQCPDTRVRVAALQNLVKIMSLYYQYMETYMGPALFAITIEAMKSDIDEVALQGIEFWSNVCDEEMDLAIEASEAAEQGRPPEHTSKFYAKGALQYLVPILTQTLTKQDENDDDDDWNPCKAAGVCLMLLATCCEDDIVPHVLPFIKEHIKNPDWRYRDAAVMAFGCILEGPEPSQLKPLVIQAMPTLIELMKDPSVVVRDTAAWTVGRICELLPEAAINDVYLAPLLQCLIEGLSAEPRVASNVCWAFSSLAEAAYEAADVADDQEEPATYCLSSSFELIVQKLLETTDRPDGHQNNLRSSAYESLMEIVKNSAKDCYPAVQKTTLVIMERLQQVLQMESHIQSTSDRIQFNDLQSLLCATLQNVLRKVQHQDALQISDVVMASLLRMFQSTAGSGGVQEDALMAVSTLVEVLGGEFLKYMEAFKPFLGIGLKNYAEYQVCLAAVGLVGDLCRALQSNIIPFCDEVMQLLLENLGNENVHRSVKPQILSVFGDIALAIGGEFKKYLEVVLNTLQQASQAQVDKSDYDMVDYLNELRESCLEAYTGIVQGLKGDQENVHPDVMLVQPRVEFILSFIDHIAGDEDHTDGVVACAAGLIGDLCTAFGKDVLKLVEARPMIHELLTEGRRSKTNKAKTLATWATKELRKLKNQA
#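 FRET biosensor (snurportin 1 IBB flanked by EYFP and cerulean), 50 nM, with compound 5 min, then 0.125 microM importin beta in PBS, 1 mM DTT, 0.02% Tween-20, 0.1% BSA. CFP/YFP ratio read after 45 min at room temperature; pre-read flags interference.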
# GLA inh pH 4.5: blocks human alpha-galactosidase A at pH 4.5; purified enzyme, 4-MU-alpha-Gal fluorescence, pH 4.5; activity change, negative = inhibition, % at 105 µM; 230,000 tested, under 10 active; AID 1467; inconclusive = small, poorly fitted or top-dose-only inhibition, or a rising curve; inactive = flat fitted curve, though single readings scatter; no compound was filed as active;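 also: 0% = full activity with enzyme and -100% = basal without enzyme; dose as in the result columns while the protocol names 77 µM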
# miR-21 FLuc: miR-21 reporter, rising signal. HeLa miR-21 FLuc reporter, luciferase, 48 h. 340,000 tested, under 10 active. Potency, µM (top dose mostly 38.3 µM), inactives show at the top dose reporter change, positive = more light; active = well fitted rising curve with a large enough effect; inconclusive = small, poorly fitted or top-dose-only effect; inactive = no such curve, though single readings can be large or run the other way;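 also: % of control where 0% means no effect; miR-21 action dims this reporter so a rising signal means less miR-21 action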
#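 Luminescence from a firefly luciferase reporter carrying a miR-21 binding site downstream, stably expressed under a CMV promoter in HeLa cells that make miR-21 endogenously, reports miRNA modulation after 48 h compound exposure up to approximately 40uM final.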
# Rango dissoc inh: inhibitors of RanGTP-induced Rango-importin beta complex dissociation; O95149+P62826; Biochemical FRET Rango-importin beta, RanGTP-induced dissociation; Potency, µM (titrated, usually from 46.1 µM), for inactives: at the highest dose activity change, negative = inhibition; 340,000 compounds, 0.071% hits; AID 540253; active means falling FRET ratio curve, often poorly fitted, with flat reads before Ran was added; inconclusive means other falling curves, or compound fluorescence or quenching; inactive means flat or rising ratio curve;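 also: potency is read from the fitted curve at half-maximal effect; % of control where 0% means no effect; nearly all actives have a fitted effect of over 45% in size; -100% = wells without RanGTP and RCC1; the record marks most hits as doubtful in a second field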
#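 FRET read at 45 min, room temperature: inhibitors block the CFP/YFP signal rise when RanGTP (0.6 uM Ran, 2 mM GTP, 0.2 uM RCC1) frees Rango (0.1 uM) from importin beta (0.25 uM). Pre-read after 5 min compound exposure flags interference.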
# * hit, by the source's call; ? = inconclusive; nt = no result given; & = joins results of further samples; [ ] = another dose, or the depositor's remark. A portion of the library. The share of hits here may be higher or lower than overall.
SMILES,Rango complex inh,GLA inh pH 4.5,miR-21 FLuc,Rango dissoc inh
N#CCC(=O)Nc1ccc(C(=O)OCC(=O)Nc2cccc(C(F)(F)F)c2)cc1,?,-4,3%,1%
CCSC1=N/C(=C\c2ccc(C)s2)C(=O)S1,1.9%,10,-9%,-7%
O=C(CN1CCOCC1)Nc1c(-c2ccccc2)c2cc(Br)ccc2[nH]c1=O,3.6%,-5,0%,18%
COc1ccccc1NC(=O)CSc1nc2[nH]ncc2c(=O)[nH]1,-0.9%,nt,nt,-4%
O=C(COC(=O)CCC(=O)c1cccs1)Nc1ccc(F)c(F)c1F,0.2%,nt,nt,29%
Cc1ccccc1-c1cccc([C@@H]2C[C@H]3[C@H](CON3C)CN2S(=O)(=O)c2ccccc2C)c1,-3.6%,nt,nt,2%
COc1cccc(N=c2oc3c(C)ncc(CO)c3cc2C(=O)Nc2ccccc2OC)c1,nt,-11,-1%,nt
CC1Oc2ccccc2N(CC(=O)N2CCc3ccccc32)C1=O (stereo not given),3.6%,-5,-3%,-2%
O=C(CN1C(=O)S/C(=C/C=C/c2ccccc2)C1=O)Nc1ccc(C(=O)O)cc1,-0.5%,-9,3%,-13%
O=C(Nc1nccs1)c1ccc2ccccc2n1,-3.7%,nt,-26%,3%
CCCCN(C)C(=O)c1cc2cc3ccc(OC)cc3nc2o1,0.8%,nt,-40%,-18%
COc1cc(C2N(C)C(=O)c3ccccc3N2C)ccc1O (stereo not given),-5.2%,nt,-2%,-9%
COc1ccc(C(=O)n2nc(C)cc2C)cc1Br,3.0%,-1,-1%,-3%
O=C(O)c1cc(C(=O)C2CCCCC2)c[nH]1,-0.1%,14,-26%,0%
O=C(COC(=O)CCc1ccccc1)Nc1cc([N+](=O)[O-])ccc1F,-1.6%,nt,4%,-12%
O=C(CNC(=O)c1ccc2c(c1)OCO2)N/N=C/c1cccc([N+](=O)[O-])c1,0.3%,-4,-2%,-9%
COc1ccc(C(=O)N/C(=C\c2cn(S(=O)(=O)N(C)C)c3ccccc23)C(=O)NCCN2CCOCC2)cc1OC,0.1%,nt,-5%,16%
Cc1ccc(S(=O)(=O)NNC(=O)CCCCC(=O)NNS(=O)(=O)c2ccc(C)cc2)cc1,0.6%,-6,2%,-5%
COC(=O)C1CCN(C(=O)c2ccc3oc(Cc4ccc(Cl)cc4)nc3c2)CC1,0.6%,nt,-3%,6%
CCOC(=O)CNC(=O)C12CC3CC(C1)CC(c1ccc(C)cc1)(C3)C2,-2.3%,-3,1%,-5%
CCCC1=Nc2cc(C(=O)NCCCN3CCOCC3)ccc2Sc2ccccc21,-0.7%,nt,11%,-2%
O=C(CSc1nnc(-c2ccccc2F)n1C1CC1)Nc1cccnc1Cl,-0.1%,21,1%,-11%
CCNC(=O)N1C(=O)C2(OCCO2)c2cc(Br)ccc21,-1.5%,-8,0%,-5%
O=C1C=C(c2ccccc2)C(c2ccccc2)C1 (stereo not given),0.3%,nt,nt,-3%
CCOC(=O)C(NC(C)=O)C(=O)Nc1c(C)cccc1C (stereo not given),0.4%,6,4%,0%
Cc1cccc(N2CCN(S(=O)(=O)c3c(C(=O)N4CCCCC4)c(C)n(C)c3C)CC2)c1C,-0.5%,nt,10%,-9%
N=c1ccn(Cc2ccc(Cl)c(Cl)c2)cc1,-0.3%,1,?,3%
O=C(/C=C/c1ccccc1)Nc1ccc(Cl)cn1,?,5,-12%,38%
N#CCSc1nnc(-c2ccc(F)cc2)n1N,0.2%,2[21.1 µM],4%,1%
C=CCn1c(=NC(=O)C2CCCCC2)sc2cc(NC(C)=O)ccc21,1.0%,-2,-7%,14%

# Record cards, from the list above.
# Listed for `O=C1C=C(c2ccccc2)C(c2ccccc2)C1` (stereo not given) = Rango complex inh: 0.3%; GLA inh pH 4.5: nt; miR-21 FLuc: nt; Rango dissoc inh: -3%
# Listed for `Cc1cccc(N2CCN(S(=O)(=O)c3c(C(=O)N4CCCCC4)c(C)n(C)c3C)CC2)c1C` = Rango complex inh: -0.5%; GLA inh pH 4.5: nt; miR-21 FLuc: 10%; Rango dissoc inh: -9%

# The list continues.
SMILES,Rango complex inh,GLA inh pH 4.5,miR-21 FLuc,Rango dissoc inh
CC(C)CCNC(=O)C1(c2cccs2)CCOCC1,2.4%,5,7%,-1%
CCOc1ccc(OCCNCc2ccc(OC(C)C(=O)N(C)C)c(OCC)c2)cc1 (stereo not given),5.4%,nt,1%,-17%
CC1(OC(=O)CCc2ccccc2)C(=O)C=C2C=C(c3ccc(C#N)cc3)N(CCc3ccccn3)C=C2C1=O (stereo not given),?,-1&-9,-1%,-25%
Cc1ccccc1NC(=O)c1ccc(NS(=O)(=O)c2cc(C(C)(C)C)cc(C)c2C)cc1,0.3%,-2,26%,10%
O=C(NNC(=S)NC(=O)c1ccco1)c1ccc(NC(=O)c2ccccc2)cc1,?,-10,8%,19%
O=C(Cc1ccccc1)N/N=C/c1cccnc1,-3.4%,nt,-2%,2%
COc1cc(/C=C(\C#N)C(=O)NCC2CCCO2)ccc1OC(C)C (stereo not given),?,0,-11%,1%
Cc1cc(N2CCOCC2)ccc1/C=C1\NC(=O)N(CC(=O)Nc2ccc(F)cc2)C1=O,?,5,-30%,?
Cc1onc(-c2ccccc2)c1C(=O)N/N=C/c1ccco1,-2.1%,-1,1%,-9%
Cc1cc(Nc2ccccc2)nn1C(=O)c1ccccc1,-2.0%,-4,1%,-19%

# 2 entries drawn at random from those above, as already listed:
SMILES,Rango complex inh,GLA inh pH 4.5,miR-21 FLuc,Rango dissoc inh
Cc1ccccc1-c1cccc([C@@H]2C[C@H]3[C@H](CON3C)CN2S(=O)(=O)c2ccccc2C)c1,-3.6%,nt,nt,2%
COC(=O)C1CCN(C(=O)c2ccc3oc(Cc4ccc(Cl)cc4)nc3c2)CC1,0.6%,nt,-3%,6%

# New compounds follow:
SMILES,Rango complex inh,GLA inh pH 4.5,miR-21 FLuc,Rango dissoc inh
CC(C)C(=O)C1=Cc2cc([N+](=O)[O-])ccc2OC1N1CCOCC1 (stereo not given),-3.5%,nt,3%,-29%
COc1ccc(Cc2n[nH]c(=S)n(N)c2=O)cc1,-0.3%,6,0%,-5%
Cc1c(Cl)cccc1NC(=O)C1CCCN(S(C)(=O)=O)C1 (stereo not given),0.7%,nt,-3%,1%
CCn1c(=O)cc(N2CCN(C(=O)c3ccco3)CC2)[nH]c1=O,-0.3%,1,0%,-11%
COc1ccc(C(CC(=O)c2ccc(O)cc2)S(=O)(=O)c2ccc(C)cc2)cc1 (stereo not given),-5.9%,-7,-9%,7%
COc1ccccc1CCC(=O)OC(C)C(=O)Nc1c(C)n(C)n(-c2ccccc2)c1=O (stereo not given),-4.0%,nt,nt,-3%
Cc1csc(SCC(=O)NC2CCC(C)CC2)n1 (stereo not given),-0.7%,nt,nt,-2%
O=C1C2CCCN2C(=O)N1CCCN1CCN(c2cccc(Cl)c2)CC1 (stereo not given),-0.5%,4,-18%,13%
CCCCOc1ccc(Cc2c(Cl)nc(SC)nc2N2CCOCC2)cc1,-0.1%,0,-2%,1%
COc1cc(/C=C2/C(=O)CNC2=O)ccc1O,4.7%,0,-2%,-1%
O=C(COCC(=O)N1CCOCC1)N1CCOCC1,2.8%,3,0%,-11%
COc1ccc(C(=O)NN)cc1,0.5%,2,-35%,-6%
COC(=O)C1CCN(C(=O)c2ccc(SC)cc2OC)CC1,-1.2%,8,-6%,4%
Cc1cccc(Oc2nc3ccccn3c(=O)c2/C=C(\C#N)C(=O)NC2CCS(=O)(=O)C2)c1 (stereo not given),?,6,5%,?
CCCCN(C(=O)c1ccc([N+](=O)[O-])s1)c1c(N)n(CCCC)c(=O)[nH]c1=O,-0.7%,nt,nt,0%
Cc1ccc(S(=O)(=O)N2CC(=O)NC(=O)C2)cc1,-3.3%,nt,1%,-27%
CN(Cc1ccccc1)C(=O)COC(=O)c1ccc(Cl)c(N)c1,0.4%,2,1%,13%
C1CCC(CNc2c3c(nc4nnnn24)CCCC3)CC1,?,3,-6%,-21%
COc1ccc(C(C(=O)NC2CCCC2)N(C(=O)c2ccoc2C)c2ccc(C)cc2)cc1 (stereo not given),1.0%,-3,12%,5%
S=c1[nH]cc(-c2ccccc2)n1-c1ccccc1,4.5%,-6,1%,-7%

# Some entries already given, limited to Rango complex inh and miR-21 FLuc.
molecule	Rango complex inh	miR-21 FLuc
COc1ccc(C(=O)NN)cc1	0.5%	-35%
COC(=O)C1CCN(C(=O)c2ccc(SC)cc2OC)CC1	-1.2%	-6%
Cc1cccc(Oc2nc3ccccn3c(=O)c2/C=C(\C#N)C(=O)NC2CCS(=O)(=O)C2)c1 (stereo not given)	?	5%
CCCCN(C(=O)c1ccc([N+](=O)[O-])s1)c1c(N)n(CCCC)c(=O)[nH]c1=O	-0.7%	nt
Cc1ccc(S(=O)(=O)N2CC(=O)NC(=O)C2)cc1	-3.3%	1%
CN(Cc1ccccc1)C(=O)COC(=O)c1ccc(Cl)c(N)c1	0.4%	1%

# Later entries:
SMILES,Rango complex inh,GLA inh pH 4.5,miR-21 FLuc,Rango dissoc inh
CC(C)Cn1c(N)c(-c2nc(C(C)C)c(C(=O)c3ccccc3F)s2)c(=O)n(C)c1=O,nt,7,-2%,nt
CCS(=O)(=O)N1Cc2ccccc2CC1C(=O)N(C)CC(=O)Nc1ccc(OC)cc1 (stereo not given),0.2%,nt,nt,0%
CC12CC(O)C3C(CCC4=CC(=O)CCC43C)C1CCC2=CCO (stereo not given),4.8%,nt,nt,-2%
O=C(O)c1ccc(COCC(F)(F)C(F)F)o1,2.6%,7,-4%,4%
Cc1csc(-c2cnn(-c3ccccc3)c2NC(=O)c2cccc(F)c2)n1,-2.9%,8,-13%,-9%
CC1CCN(S(=O)(=O)c2ccc(NC(=O)CCNC(=O)c3ccc(Cl)cc3)cc2)CC1,-4.2%,nt,nt,-3%
Cc1cccc(N2CCN(C(=S)c3ccc(-c4ccccc4[N+](=O)[O-])o3)CC2)c1,0.2%,-7,11%,12%
COc1ccccc1NC(=O)CN1CCC(n2nnc3cc(F)ccc32)CC1,-0.4%,-5,-12%,2%
CCOCc1nnc(NC(=O)CSCc2ccccc2)s1,-1.6%,-2,-11%,-11%
N#Cc1c(NC(=O)CCCl)sc2c1CCCCC2,-1.4%,5,5%,-9%
CN(C)[C@@H](CO)c1nnc([C@H](Cc2ccc(O)cc2)NC(=O)C2CCNCC2)o1,-0.2%,-6,0%,-2%
CC(C)CN1CCC(C(=O)NCC2CCCO2)CC1 (stereo not given),-0.5%,-4,-1%,20%
Cc1cc(-n2c(C)cc(C(=O)CCl)c2C)no1,-0.9%,-1,21%,16%
COc1cc(C(=O)Nc2cccc(-c3nc4cc(C)cc(C)c4o3)c2)cc(OC)c1OC,1.1%,-8,-5%,-5%
CC(=O)c1cccc(NC(=O)N2C3CCC2CC(NC(=O)Nc2ccccc2)C3)c1 (stereo not given),-1.8%,0,1%,35%
COCCNC(=O)CN1C(=O)CSc2cc(S(=O)(=O)N3CCCCCC3)ccc21,1.1%,nt,nt,-8%
N#Cc1c(/N=C/c2ccccc2)oc(-c2ccccc2)c1-c1ccccc1,-2.6%,1,-2%,-4%
CC(C)(C)C(=O)NC1CCN(S(=O)(=O)c2cccc(C(F)(F)F)c2)CC1,?,-5,0%,8%
Cc1cc2c(cc1S(=O)(=O)N(C)Cc1ccccc1)OCC(=O)N2,-1.6%,nt,5%,0%
Cn1cnc2c1c(=O)n(Cc1ccc(Cl)cc1Cl)c(=O)n2C,-3.4%,nt,-14%,-1%
CC(=O)c1cccc(NC(=O)C(C)OC(=O)C2=NNC(=O)CC2)c1 (stereo not given),-0.3%,nt,nt,-2%
CCc1c(C)sc(NC(=O)c2noc(C)c2[N+](=O)[O-])c1C#N,-0.6%,2[21.1 µM],-2%,18%
CC1CCCC(C)N1C(=O)COC(=O)c1ccccc1O (stereo not given),-3.7%,nt,nt,7%
CC(=O)c1ccc(Nc2nc(=O)c3cccnc3s2)cc1,-3.6%,7,-39%,2%
Nc1ccc(C#Cc2ccc3c(=O)c4ccccc4oc3c2)cc1,?,nt,-43%,?
Cc1cn(CC(=O)N2CCN(c3ccccn3)CC2)c(=O)[nH]c1=O,-0.2%,nt,nt,0%
